Screening results (PubChem)
VACV mCherry inh = qHTS for Stage-Specific Inhibitors of Vaccinia Orthopoxvirus: mCherry Reporter Primary qHTS. AID 720579, 2013. Vaccinia virus mCherry reporter infection, fluorescence; about a quarter of the inactives have no number. Potency, µM (series often up to 36.5 µM), inactives show at the top dose activity change, negative = inhibition, actives largely listed as inhibitors. actives 0.63% (n = 310,000); active = well fitted inhibition curve with a large enough effect; inconclusive = small, poorly fitted or top-dose-only effect; inactive = no such curve, though single readings can be large or run the other way; tested in A549 cells; note: nearly all actives have a fitted effect of over 35% in size; inactives centre near -10
VACV Venus inh = qHTS for Stage-Specific Inhibitors of Vaccinia Orthopoxvirus: Venus Reporter Primary qHTS | Vaccinia virus Venus reporter expression, fluorescence | Potency, µM (top dose mostly 36.5 µM), for the others: at the top dose activity change, negative = inhibition, usual class: inhibitors | actives 0.46% (n = 330,000) | AID 720580, 2013; active means well fitted inhibition curve with a large enough effect; inconclusive means small, poorly fitted or top-dose-only effect; inactive means no such curve, though single readings can be large or run the other way; tested in A549 cells; note: nearly all actives have a fitted effect of over 30% in size; inactives centre near -10
* marks the source's active call; other numbers are inactive results; i = inactive; ? = inconclusive; . = no result given; & = joins results of further samples; [ ] = remark or other dose. % is set by controls: 0 for no effect and ±100 for the full control effect; potency is the fitted concentration of half-maximal effect.

Values run as follows: VACV mCherry inh	VACV Venus inh
> CC(=O)NCc1ccc(S(=O)(=O)NC2CCN(Cc3ccccc3)CC2)cc1
    i	-9%
> O=C(O)Cc1coc2ccc3ccccc3c12
    i	-12%
> Cc1ccc(-c2nnc(Nc3ccccc3)c3ccccc23)cc1S(=O)(=O)N1CCOCC1
    ?	-20%
> c1ccc(N2CCN(c3cccc(-c4cc5ccccc5s4)n3)CC2)nc1
    i	-8%
> COc1ccc(CNc2ccc3cn[nH]c3c2)c(OC)c1OC
    -14%	-3%
> C=CCn1c(CSc2nc3ccccc3s2)nnc1SCC(=O)NCc1ccccc1
    .	-30%
> Cc1ccc(C)c(S(=O)(=O)NCc2ccc(C(=O)N3CCOCC3)cc2)c1
    -5%	-27%
> CCOc1cc(N2CCOCC2)c(OCC)cc1NC(=O)Cc1ccccc1
    -14%	-18%
> CCCC(C)NC(=O)C1CCN(S(=O)(=O)c2ccccc2)CC1 (configuration not stated)
    -20%	-7%
> COc1ccc(OCC2c3cc(OC)c(OC)cc3CCN2C(=O)c2ccc(F)cc2)cc1 (configuration not stated)
    2%	-3%
> O=C(CN1CCN(Cc2ccccc2)CC1)c1c[nH]c2ccccc12
    -4%	-11%
> Cc1cccc(CS(=O)(=O)Cc2ccc(C(=O)NCc3cccs3)o2)c1
    -1%	-11%
> Cc1csc(SCC(=O)Nc2sccc2C#N)n1
    ?	4%
> O=C1c2ccccc2C(Nc2ccc(F)c(Cl)c2)N1c1ccccn1 (configuration not stated)
    0%	14%
> O=C(N/C(=C/c1cccs1)C(=O)N1CCOCC1)c1ccco1
    i	-20%
> COC(=O)c1cc(S(=O)(=O)NCCN2CCN(c3ccccc3F)CC2)c[nH]1
    -17%	-7%
> COc1ccc(-n2c(SCC(=O)NCc3ccccc3)nc3n[nH]c(C)c3c2=N)cc1
    -14%	-14%
> Cc1ccc(NC(=O)CSc2nc(-c3ccco3)nc3cc(=O)[nH]n23)cc1C
    -4%	-11%
> COc1ccc2[nH]c(C(=O)N3CCN(C)CC3)c(C)c2c1
    i	-10%
> c1c2c(cc3sc(N4CCCCC4)nc13)OCO2
    -19%	-10%
> COc1ccccc1NC(=O)COc1ccc(C(=O)OCC(=O)N2CCCC2=O)cc1OC
    -7%	-13%
> O=C(COc1ccc(Cl)cc1)Nc1cc(S(=O)(=O)N2CCCCC2)ccc1N1CCCCC1
    -10%	0%
> Cc1oc(-c2ccc(Cl)cc2)nc1CSCC(=O)NC1CCN(Cc2ccccc2)CC1
    -26%	-13%
> COc1ccc(CN(C)C(=O)CCCNC(=O)c2ccc(Cl)cc2)cc1
    i	-22%
> O=C(CN(Cc1ccc(F)cc1)C(=O)c1csnn1)NCc1ccc2c(c1)OCO2
    -12%	-19%
> O=C(NCC(c1ccc(F)cc1)N1CCOCC1)c1ccccc1F (configuration not stated)
    0%	1%
> CCCCNc1ccc(C(CC(N)=O)NC(=O)Cc2cccc3ccccc23)cc1[N+](=O)[O-] (configuration not stated)
    -30%	-15%
> CCOc1ccc(NS(=O)(=O)c2ccc(C)c(C(=O)NCCCn3ccnc3)c2)cc1
    14%	-5%
> CCn1nc(C)c(CN2CCc3c([nH]c4ccccc34)C2c2ccc(F)c(OC)c2)c1C (configuration not stated)
    -28%	-19%
> CCc1ccc(C(=O)/C=C/NCc2ccc(F)cc2)cc1
    -8%	-18%
> Cc1ccc(OCc2nc3ccccc3n2C(C)C(=O)Nc2c(C)cccc2C)cc1 (configuration not stated)
    i	?
> c1ccc2[nH]c(SCC3CCCCO3)nc2c1 (configuration not stated)
    -10%	9%
> COc1ccc(/C=N/n2cc(-c3ccccc3)nc2N)cc1
    ?	-24%
> Cc1cc2sc(C(=O)O)c(C)c2s1
    .	9%
> CC1Cc2nc(SCC(=O)NCc3ccco3)n(-c3ccccc3)c(=O)c2S1 (configuration not stated)
    -18%	1%
> Cc1nc2ccccc2cc1C(=O)NCc1ccccc1
    i	-16%
> C[C@@H]1COC(=O)[C@H](Cc2ccc(F)cc2)C/C=C\C[C@@H](CC(=O)NCCO)C(=O)N1
    i	-11%
> Cc1cccc(CSc2ncc(CO)n2Cc2ccc(F)cc2)c1
    -17%	-11%
> COc1ccc2c(c1)C1(C)CCN(C)CC(C1)C2O (configuration not stated)
    -10%	-23%
> Cc1c(C(N)=O)cc([N+](=O)[O-])cc1[N+](=O)[O-]
    -17%	-9%&-8%

Overlap with the part before: 5 compounds, then new ones.
Values run as follows: VACV mCherry inh	VACV Venus inh
> Cc1nc2ccccc2cc1C(=O)NCc1ccccc1
    i	-16%
> C[C@@H]1COC(=O)[C@H](Cc2ccc(F)cc2)C/C=C\C[C@@H](CC(=O)NCCO)C(=O)N1
    i	-11%
> Cc1cccc(CSc2ncc(CO)n2Cc2ccc(F)cc2)c1
    -17%	-11%
> COc1ccc2c(c1)C1(C)CCN(C)CC(C1)C2O (configuration not stated)
    -10%	-23%
> Cc1c(C(N)=O)cc([N+](=O)[O-])cc1[N+](=O)[O-]
    -17%	-9%&-8%
> C/C(=N\NC(=O)c1nnn(-c2nonc2N)c1CSc1ccccc1)c1ccc2c(c1)OCO2
    ?	-5%
> C(#CCN1CCOCC1)COC(c1ccccc1)c1ccccc1
    -10%	-1%
> COc1cc(OC)cc(C(=O)N[C@H](C(=O)NCCc2ccc(S(N)(=O)=O)cc2)C(C)C)c1
    8%	3%
> COc1ccc(N2CCN(C3C(=O)c4ccccc4N3C(C)=O)CC2)cc1 (configuration not stated)
    -5%	-11%
> CCOC(=O)CCN(C(=S)Nc1ccccc1)C1CCCCC1
    -13%	4%
> CC(C)(C)c1ccc(C(=O)Nc2ccc(S(N)(=O)=O)cc2)cc1
    -22%	-19%
> Cc1ncc([N+](=O)[O-])n1CCOC(=O)c1ccc(Br)cc1
    i	-9%
> O=C(Nc1nncs1)Oc1ccccc1
    i	-18%
> CN1c2ccc(Cl)cc2C(=O)NC1C1CC=CCC1 (configuration not stated)
    -6%[7.34 µM]	-10%[7.34 µM]
> O=c1[nH]ncn1-c1ccccc1
    i	-11%
> Clc1ccccc1/C=N/NC1=Nc2cccc3cccc1c23
    -29%	58%[activator]
> CCC(Sc1nc2ncccc2[nH]1)C(=O)Nc1cccc(OC)c1 (configuration not stated)
    -9%	-7%
> Cc1ccc(N(C(=O)c2csnn2)C(C(=O)NC2CCCCC2)c2ccccn2)cc1C (configuration not stated)
    -6%	-2%
> CCN=C1SC(CC(=O)Nc2ccc3c(c2)OCO3)C(=O)N1CC (configuration not stated)
    -9%	-2%
> CCOC(=O)c1c(C)[nH]c(C(=O)COC(=O)c2ccncc2)c1C
    .	-23%
> COc1cccc(CN(C)C[C@@H]2OCc3cnnn3CCCC(=O)N([C@@H](C)CO)C[C@H]2C)c1
    i	-13%
> Cc1cccc2nc(COc3ccc(Cl)c4cccnc34)cn12
    -5%	-22%
> Nn1c(Nc2ccccc2)nc2ccccc21
    .	-3%
> CN(C)C(=O)Nc1ccc(Cl)c(Cl)c1
    6%	14%
> Cc1ccc(/C=C(\C#N)c2nc(-c3cc4c(ccc5ccccc54)oc3=O)cs2)cc1
    5%	4%
> Cc1sc2ncn(CC(=O)NCCN(C)C)c(=O)c2c1S(=O)(=O)N1CCC(C)CC1
    -5%	4%
> CCN1CCN(C(=O)/C=C/c2ccc(C(C)C)cc2)CC1
    -7%	-11%
> CCOc1ccccc1N(CC)C(=O)c1cc2c(=O)[nH]c3ccc(C)cc3c2s1
    -4%	-1%
> O=C(Nc1ccc(Br)cc1)c1cc(-c2ccncc2)nc2ccccc12
    i	0%
> CC(=O)c1cccc(NS(=O)(=O)N2CCCCC2)c1
    .	-8%
> O=C(N/N=C/c1ccc2c(c1)OCO2)c1cc(-c2ccccc2Cl)nc2ccccc12
    i	-5%
> COc1ccc(-c2nc3ccccn3c2CN2CCN(c3ccccc3F)CC2)cc1
    -26%	-22%
> O=C(N/N=C/c1sc2ccccc2c1O)c1ccccc1
    10µM*	-23%
> CC(=O)c1ccccc1N(C(=O)Cn1nnc2ccccc21)C(C(=O)NCC1CCCO1)c1ccc(N2CCOCC2)cc1 (configuration not stated)
    i	-4%
> Cc1cc(C)n2nc(C(=O)OCC(=O)Nc3ccc(C)c(S(=O)(=O)N(C)C)c3)nc2n1
    i	-11%
> C=CCn1cnc2scc(-c3ccc(CC)cc3)c2c1=O
    -10%	-19%
> CN1CCN(c2ccc3ccccc3n2)CC1
    i	-12%
> COc1cc(Cl)c(CC(=O)NO)cc1OC
    i	-15%
> COc1ccccc1-c1nc2c(c(SCc3ccc(F)cc3Cl)n1)Cc1c(CO)cnc(C)c1O2
    -10%	-16%
> O/N=C\c1cccn1-c1nccs1
    i	-5%
> COc1cc(/C=C2/C(=O)NN(c3ccc(Cl)cc3)C2=O)ccc1OC(=O)c1ccco1
    -20%	-23%
> C=CCSc1nnc(NC(=O)C2CSC3(C)CCC(=O)N23)s1 (configuration not stated)
    -15%	-10%
> CCC(=O)N(CCc1ccc(S(N)(=O)=O)cc1)C1CC(=O)N(c2ccc(OC)cc2)C1=O (configuration not stated)
    i	-10%
> CCOc1ccc2ccccc2c1/C=N/NC(=O)c1c(C)cc(C)[nH]c1=O
    -3%[7.34 µM]	-2%[7.34 µM]
> CCN(CC)C(C)CN1c2ccccc2Sc2ccccc21 (configuration not stated)
    -29%	?
> CCOC(=O)c1ccccc1NC(=O)CSc1cccc[n+]1[O-]
    .	-13%
> CCN1C(=O)/C(=C2/Sc3ccccc3N2CCCS(=O)(=O)O)SC1=S
    -17%&-6%	-5%&-3%
> Cc1csc2nc3ccccc3c(=O)n12
    -9%	-7%
> CCCCN(CCCC)C(=O)c1ccccc1NC(=O)CN1C(=O)c2ccccc2C1=O
    .	-11%
> CC(C)C(c1nnnn1Cc1ccco1)N1CCN(C2CCCC2)CC1 (configuration not stated)
    -3%	2%
> O=S(=O)(c1cnc(Cl)c(Cl)c1)N1CCCc2ccccc21
    -22%	-7%
> CN=c1scc(C)n1/N=C/c1ccc(O)cc1
    .	-14%
> COc1ccc(NC(=O)c2ccccc2SCc2ccccc2)cc1
    ?	-10%
> COc1ccc(Br)cc1S(=O)(=O)NCc1ccccc1
    -25%	-13%
> CCOC(=O)C1(CCCc2ccccc2)CCN(C2CCSCC2)CC1
    ?	?
> Cc1ccc(S(=O)(=O)N2CCN(c3nc(N(C)c4cc(Cl)ccc4O)nc4ccccc34)CC2)cc1
    -15%	-17%
> CC1CCCN(C(=O)CCS(=O)(=O)c2ccc3c(c2)n(C)c(=O)c(=O)n3C)C1 (configuration not stated)
    -6%	-3%
> COc1cccc(-n2c(=O)c3c(C)c(C(=O)N(C)C)sc3n(CC(=O)Nc3ccc(C)cc3Cl)c2=O)c1
    -4%	-11%
> CCn1c(C)nc2cc(C(=O)N/N=C/c3ccccc3)ccc21
    i	-1%
> COc1cccc(-c2ccc(C#N)c(SCC(=O)NCCc3ccc(Cl)cc3)n2)c1
    -9%	?
> CC(=O)N1CCN(C(=O)COC(=O)/C=C/c2ccccc2[N+](=O)[O-])CC1
    -5%	-15%
> O=C(CN1CCOCC1)N1c2ccccc2Sc2ccc(Cl)cc21
    -11%	-15%
> CCN(CC)CCC(c1cc(OC)c(OC)c(OC)c1)c1c(OC)cc(OC)c2ccc(=O)oc12 (configuration not stated)
    6%	-24%
> O=C(Cc1cccc(NC(=O)C2CCN(C(=O)C3CCCC3)CC2)c1)Nc1cccc(C(=O)N2CCCC2)c1
    -11%	-20%
> C[C@H](CO)N1C[C@H](C)[C@@H](CN(C)C)Oc2c(NC(=O)Cc3ccccc3)cccc2C1=O
    -10%	-13%

(further entries)
Values run as follows: VACV mCherry inh	VACV Venus inh
> Cc1cccc(NC(=O)CSc2nc(-c3ccccc3Cl)nc3c2Cc2c(CO)cnc(C)c2O3)c1C
    -8%	-12%
> O=C(CC1C(=O)NCCN1Cc1c(F)cccc1Cl)NCc1ccccc1 (configuration not stated)
    -14%	-10%
> CCc1cc(C(=O)N/N=C/c2ccc(OC)cc2)c2ccccc2n1
    -21%	-9%
> CCOc1ccc(C(=O)O[C@H]2[C@H](Cc3ccccc3)NS(=O)(=O)[C@H]3C[C@@H]4C=C[C@]23O4)cc1
    -11%	-15%
> CCC(Oc1ccccc1)C(=O)N(CC)CC(=O)NCc1ccc(F)cc1 (configuration not stated)
    -22%	-21%
> NS(=O)(=O)c1ccc(NS(=O)(=O)c2ccc(NC(=S)Nc3ccccc3)cc2)cc1
    i	-4%
> COc1ccccc1C(=O)NCCC(=O)N1CCN(c2cccc(C(F)(F)F)c2)CC1
    -23%	-25%
> CCN(CC)S(=O)(=O)c1ccc(C(=O)OC2CCCCC2CN(C)C)cc1 (configuration not stated)
    -11%	-6%
> CCOC(=O)C(NC(=O)Nc1ccccc1)(OCC)C(F)(F)F (configuration not stated)
    .	-12%
> CNc1ccccc1C(=O)OC
    i	3%
> CN(c1ccccc1)c1ccc(/C=C(\C#N)c2nnc3n2CCCCC3)cc1[N+](=O)[O-]
    -6%	12%
> O=C(O)c1nsc(Cl)c1Cl
    i	-16%
> O=C(NCc1ccccn1)C1CC(c2ccccc2O)=NO1 (configuration not stated)
    i	-5%
